PINK1 expr mod: modulators of PINK1 expression; PINK1 immunofluorescence, high-content cytometry, 24 h; 0.2% of 410,000 active; Potency, µM (doses to about 76.6 µM), without a hit: at the highest dose activation (PINK1 increase), actives largely listed as activators; active = well fitted activation curve with a large enough effect; inconclusive = small, poorly fitted or top-dose-only effect; inactive = flat fitted curve, though single readings scatter; cell line not stated here;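 also: potency is read from the fitted curve at half-maximal effect; % of control where 0% means no effect; nearly all actives have a fitted effect of over 65% in size; a mitochondrial uncoupler was the plate control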
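Compound titrations (5 concentrations, 24 h) on a stable cell line; DMSO and CCCP controls. Endpoint: fixed-cell PINK1 immunofluorescence with mitochondrial, cell and nuclear markers, scanned by microplate cytometer.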
Six1-Eya2 blk: Six1/Eya2 interaction inhibition; Q15475+O00167; AlphaScreen GST-Six1/His-Eya2 binding, biochemical; active compounds read low; control for the full effect not named in the record; activity change, % (test concentration not listed); 0.56% of 360,000 active; AID 651725; in the data active = activity change below about -65%; inconclusive = about -30% to -65%; inactive = above about -30%; also: % is scaled to controls: 0 for no effect and ±100 for the full control effect
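Compounds are tested against tagged Six1 and Eya2 proteins bridged by glutathione donor and nickel acceptor beads; after a one-hour incubation at 37 °C without light, AlphaScreen emission is recorded.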
TRPML1 blocker: inhibitors of human TRPML1 channel | Q9GZU1 | TRPML1-inducible cells, Ca2+ dye fluorescence, FDSS; active compounds read low; inhibition of EC80 agonist-evoked calcium signal | activity change, negative = inhibition, % (concentration not given with the values) | 0.02% of 390,000 active | AID 624415; in the data active means activity change below about -50%; inconclusive means about -30% to -50%; inactive means above about -30%;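 also: stimulus is agonist 54-4 at its EC80 concentration; % is scaled to controls: 0 for no effect and ±100 for the full control effect; the text of the record puts the active cut at -80%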
Target sequence (Q9GZU1 whole entry, looked up): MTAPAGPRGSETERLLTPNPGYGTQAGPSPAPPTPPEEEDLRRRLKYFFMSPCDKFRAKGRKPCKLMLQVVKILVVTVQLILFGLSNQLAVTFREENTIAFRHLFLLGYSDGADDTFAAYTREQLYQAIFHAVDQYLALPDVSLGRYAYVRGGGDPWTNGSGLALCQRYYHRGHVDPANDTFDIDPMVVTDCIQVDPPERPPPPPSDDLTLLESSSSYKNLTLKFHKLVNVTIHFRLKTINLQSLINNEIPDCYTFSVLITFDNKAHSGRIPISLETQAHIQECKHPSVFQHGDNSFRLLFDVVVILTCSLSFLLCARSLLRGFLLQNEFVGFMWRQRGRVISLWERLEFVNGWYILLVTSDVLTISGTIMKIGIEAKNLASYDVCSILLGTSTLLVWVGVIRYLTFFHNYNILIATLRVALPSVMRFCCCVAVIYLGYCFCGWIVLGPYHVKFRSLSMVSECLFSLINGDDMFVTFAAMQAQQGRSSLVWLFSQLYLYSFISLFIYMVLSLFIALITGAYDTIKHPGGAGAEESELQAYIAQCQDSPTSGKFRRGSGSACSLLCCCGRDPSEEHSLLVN
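TRPML1-DL cells, Tet-induced overnight (~16 h, 37 °C) at 1,500 cells/well, were loaded with Ca8 no-wash dye plus quencher for 45-90 min at room temperature. Compounds were pinned during FDSS kinetic reading; agonist 54-4 at EC80 (4 uM final) then added.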
D2 potentiator: positive allosteric modulators of human D2 dopamine receptor; 0.23% of 360,000 active; potentiation, % (test concentration not listed); DiscoveRx D2 beta-arrestin cells, luminescence, 90 min; 100% = 57 uM dopamine signal; active = potentiation of 50% or more; inconclusive = 30% to 50%; inactive = 30% or less;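 also: compound concentration not given in the record; tested on top of an EC20 dose of dopamine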
Target sequence (P14416 whole entry, looked up): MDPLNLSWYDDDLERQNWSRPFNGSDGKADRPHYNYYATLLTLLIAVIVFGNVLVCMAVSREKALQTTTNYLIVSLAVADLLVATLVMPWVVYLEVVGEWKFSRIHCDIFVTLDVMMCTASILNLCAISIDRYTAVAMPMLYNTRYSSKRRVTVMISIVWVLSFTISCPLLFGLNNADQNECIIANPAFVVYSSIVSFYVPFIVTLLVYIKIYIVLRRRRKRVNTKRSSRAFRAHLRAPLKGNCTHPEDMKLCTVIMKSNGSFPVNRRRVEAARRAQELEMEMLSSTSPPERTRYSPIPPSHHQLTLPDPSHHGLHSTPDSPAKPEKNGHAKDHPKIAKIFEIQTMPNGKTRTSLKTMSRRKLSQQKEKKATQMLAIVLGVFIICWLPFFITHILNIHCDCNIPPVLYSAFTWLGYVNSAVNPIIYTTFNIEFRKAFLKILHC
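D2 cells co-treated with compound plus 50 nM dopamine (EC20) for 90 min at 37 deg C to detect potentiation. Beta-arrestin recruitment was read as enzyme-fragment luminescence after 1 h at ambient temperature. Full response was set by 57 uM dopamine.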
TRPML1 ag: human mucolipin-1 channel agonism | Q9GZU1 | TRPML1-expressing cells, Ca2+ dye fluorescence, FDSS; host cell line not named in the record; reference of the full effect not given here | activation, % (concentration not given with the values) | 0.12% of 410,000 active; in the data active = activation above about 50%; inconclusive = about 30% to 50%; inactive = below about 30%; also: 0% is about no effect; the text of the record puts the active cut at 80%
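Kinetic FDSS Ca2+ read in Tet-induced TRPML1-DL cells (ABD Ca8 dye plus quencher, 45-90 min RT loading): baseline, then compound, then 110 s agonist window; EC80 agonist 54-4 at 4uM final added afterwards for a 110 s antagonist window.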
D2 ag: human D2 receptor agonism in beta-arrestin assay; 0.084% of 360,000 active; activation, % (no concentration beside the values); DiscoveRx PathHunter D2 beta-arrestin, luminescence, 90 min; 100% = 57 uM dopamine signal; P14416; AID 624465; in the data active = activation above about 40%; inconclusive = about 15% to 40%; inactive = below about 15%; also: compound concentration not given in the record; the text of the record calls up to 30% inactive
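Agonist mode: compounds alone added to overnight-plated D2 PathHunter cells for 90 min at 37 C, with 57 uM final dopamine (EC100) defining full response. Beta-arrestin recruitment detected by chemiluminescent reagent, read after 1 h at ambient temperature.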
The depositor's hits bear a star; ? = inconclusive; . = not tested or not shown; [ ] = remark or other dose.

Start of the listing, in advance:
SMILES | PINK1 expr mod | Six1-Eya2 blk | TRPML1 blocker | D2 potentiator | TRPML1 ag | D2 ag
Cc1ccc(C(c2sc3nc(-c4ccco4)nn3c2O)N2CCCC2)cc1 (configuration not stated) | 2.7% | . | -15 | . | 2.5 | .
COc1ccccc1OCCn1c(COc2cc(C)ccc2C)nc2ccccc21 | 1.8% | . | -10 | . | 2.7 | .

This part in full, previewed entries included:
SMILES | PINK1 expr mod | Six1-Eya2 blk | TRPML1 blocker | D2 potentiator | TRPML1 ag | D2 ag
Cc1ccc(C(c2sc3nc(-c4ccco4)nn3c2O)N2CCCC2)cc1 (configuration not stated) | 2.7% | . | -15 | . | 2.5 | .
COc1ccccc1OCCn1c(COc2cc(C)ccc2C)nc2ccccc21 | 1.8% | . | -10 | . | 2.7 | .
COc1cccc(/C=C/C(=O)OCCN2C(=O)c3ccccc3C2=O)c1 | -3.1% | 9 | 9 | 5 | 3.7 | -0.1
CCc1ccccc1NC(=O)CSc1nc2n[nH]c(C)c2c(=N)n1-c1cccc(C)c1 | 0.4% | . | -1 | . | 3.9 | .
C=CCOc1cccc(NC(=O)c2ccccc2SC)c1 | 1.5% | 4 | -14 | -5 | 4.0 | -3.1
CC(=O)c1cccc(NC(=O)CN(c2ccccc2F)S(C)(=O)=O)c1 | 6.0%[38.3 µM] | 1 | 8 | -5 | -0.1 | -4.0
O=C(O)Cc1sc(NCc2ccco2)nc1-c1ccccc1 | -0.1% | 0 | 18 | 0 | 1.1 | 4.6
Cc1ccc(SCC(=O)Nc2cc([N+](=O)[O-])ccc2O)cc1 | 16µM* | -10 | 8 | -17 | 0.5 | -15
COCCCN(C(=O)Cc1ccc(S(=O)(=O)N2CCOCC2)s1)c1c(N)n(Cc2ccccc2)c(=O)[nH]c1=O | 1.3% | 3 | 1 | -4 | -0.1 | 14
CCCOCC1CC(CCc2nc(=S)[nH][nH]2)C(=O)O1 (configuration not stated) | -3.3% | -2 | 6 | 16 | 0.3 | 1.4
COC(=O)C1(C(=O)OC)C/C=C\CCN(S(=O)(=O)c2ccccc2[N+](=O)[O-])CC1 | -0.2% | -7 | . | . | -1.3 | .
CCOC(=O)c1c(Nc2ccc(C)cc2)nnc(-c2ccccc2)c1-c1ccccc1 | -0.8% | . | 8 | . | 3.4 | .
Cc1cc(=O)n(C)c(=O)n1CCCCCN1CCCC1 | 0.9% | 6 | -6 | -1 | -0.7 | -0.7
O=C1COc2ccc(C(=O)COc3ccc(Cl)cc3Br)cc2N1 | 11% | -10 | -6 | 16 | 2.1 | 4.1
CC1=C(C#N)C(c2ccc(O)cc2)C2=C(CC(C)(C)CC2=O)N1 (configuration not stated) | 0.8% | -1 | 3 | 21 | 0.6 | 2.3
CN(CC(=O)Nc1ccccc1Cl)C(=O)COC(=O)c1ccccc1[N+](=O)[O-] | 2.4% | -1 | -9 | 13 | -0.9 | -3.0
COCCN(CC(=O)NCC1CCCO1)C(=O)CCC(=O)Nc1cc(C)on1 (configuration not stated) | 1.5% | 2 | -18 | -15 | 1.0 | -1.5
CCc1ccc(/C=N\NC(=O)c2ccc(Br)o2)s1 | 2.9% | -17 | -15 | -37 | 0.3 | -4.4
Cc1ccc2oc(-c3cccc(NC(=O)c4ccccn4)c3)nc2c1 | 7.3% | -5 | -7 | -1 | 4.4 | 2.5
CCCN(CCC)C(=O)c1cc2c(=O)n3cccc(C)c3nc2n1C | 0.0% | . | 5 | . | -0.6 | .
CC(=O)c1cccc(CN2CCC(n3nccc3NC(=O)CCCc3ccccc3)CC2)c1 | -1.4% | -1 | -5 | -17 | 0.4 | -3.9
COc1ccc(-c2[nH]c(-c3ccc(C)cc3)nc2SCC(=O)NCC2CCCO2)cc1 (configuration not stated) | -1.1% | . | 4 | . | -0.7 | .
CCc1nnc(NC(=O)CCCSc2nc3ccccc3[nH]2)s1 | 0.0% | -3 | 12 | 2 | 1.1 | 0.3
COc1ccc(Cl)cc1Cn1c(C)c(C(=O)NCc2ccc(F)cc2)sc1=O | -0.7% | 2 | . | -9 | -0.2 | 8.3
CCc1ccc(CCC(=O)Nc2ncc(Cc3ccccc3Cl)s2)o1 | 1.1% | 10 | 8 | -9 | -0.3 | 12
C#CCN1C=C(C(=O)OCC)C(C)N(Cc2ccccc2I)S1(=O)=O (configuration not stated) | 7.7% | 7 | -3 | . | -0.2 | 0.7
CCOC(=O)c1ccc2nc(C)cc(Nc3ccc(OC(C)C)cc3)c2c1 | ? | . | 11 | . | 1.3 | .
COc1ccc(C(O)c2nccn2Cc2ccccc2)cc1OC (configuration not stated) | -4.4%[38.3 µM] | 2 | -2 | 5 | 0.2 | -0.8
CN(C)c1ccc(NC(=O)CSC2=Nc3ccccc3C3=NC(CC(=O)NCc4ccc5c(c4)OCO5)C(=O)N23)cc1 (configuration not stated) | 0.8% | . | -2 | . | 1.0 | .
CCC(NC(=O)c1ccccc1NC(=O)c1ccccc1)C(=O)NNC(=O)CSc1nc2ccccc2o1 (configuration not stated) | 3.4% | -24 | -14 | 1 | 0.9 | 0.2
CCOC(=O)C1CCN(C(=O)CCc2ccc(S(=O)(=O)NCC(C)C)cc2)CC1 | 2.5% | 0 | 6 | -10 | -0.2 | -2.7
COc1ccc(C(=O)N(CC2CCCO2)C(C(=O)NCCC(C)C)c2ccc(C)cc2)cc1OC (configuration not stated) | -0.2% | 5 | 10 | -19 | 0.9 | -5.7
COc1ccc(NC(=O)C2C3C=CC(O3)C2C(=O)O)cc1 (configuration not stated) | 1.3% | 7 | -4 | -2 | -0.5 | 2.1
Brc1ccc(-c2c(-c3ccsc3)sc3ccccc23)cn1 | 3.9% | 1 | -3 | -19 | -0.1 | -4.3
Cc1ccc(S(=O)(=O)NC(=O)Nc2cc(C)ccc2F)cc1 | 1.6%[38.3 µM] | -1 | -11 | 9 | 0.3 | -2.4
COc1ccc([C@H]2N[C@]3(CCCN(Cc4ccc(F)cc4)C3=O)[C@H]3C(=O)N(Cc4ccccc4)C(=O)[C@@H]23)cc1 | 0.2% | 0 | -5 | 0 | 0.5 | -9.8
CC(C)N(c1nnc(N)s1)C(C)C | -0.1% | 2 | 6 | -7 | -0.6 | -1.9
CCCCn1c(SCC(=O)Nc2cc(C)on2)nc2ccsc2c1=O | ? | 3 | 8 | -6 | 1.8 | -1.8
Cc1ccccc1NC(=S)N1CCCC(c2nc3ccccc3[nH]2)C1 (configuration not stated) | 0.1% | 9 | -1 | -21 | 0.1 | -5.5
Cc1cccc(NC(c2cccc(F)c2)c2ccc3ccc(C)nc3c2O)n1 (configuration not stated) | 5.3% | . | 1 | . | 0.8 | .

2 consecutive records out of the list so far, quoted:
SMILES | PINK1 expr mod | Six1-Eya2 blk | TRPML1 blocker | D2 potentiator | TRPML1 ag | D2 ag
COc1ccc(NC(=O)C2C3C=CC(O3)C2C(=O)O)cc1 (configuration not stated) | 1.3% | 7 | -4 | -2 | -0.5 | 2.1
Brc1ccc(-c2c(-c3ccsc3)sc3ccccc23)cn1 | 3.9% | 1 | -3 | -19 | -0.1 | -4.3

(further entries)
SMILES | PINK1 expr mod | Six1-Eya2 blk | TRPML1 blocker | D2 potentiator | TRPML1 ag | D2 ag
CC1CCc2sc3ncnc(N4CCOCC4)c3c2C1 (configuration not stated) | 2.2% | 8 | -20 | -2 | 1.1 | -3.3
Cc1c(-c2ccc(Br)cc2)[n+](=O)c2c(n1[O-])CCCCC2 | 1.1% | -10 | -2 | -6 | -0.4 | -13
O=C(COc1ccc2ccccc2c1)N/N=C/c1ccccn1 | -1.1% | -1 | 4 | 4 | 1.6 | -5.8
Cc1cc(C)cc(SCc2noc(C(=O)NC(C)C)c2C(=O)O)c1 | 0.8% | 2 | 11 | 10 | -0.2 | 0.6
O=C(CNC(=O)c1ccccc1F)NCCc1ccc(Cl)cc1 | 0.0% | -4 | 18 | -2 | 1.5 | -1.3
CCN1CCN(C(c2cccs2)C(C)NC(=O)C(=O)N2CCCCC2)CC1 (configuration not stated) | 0.1% | 1 | -6 | -4 | 0.3 | 1.1
COc1ccc(Nc2c(-c3cccc(O)c3)nc3cnccn23)cc1 | 0.6% | . | 11 | . | 0.7 | .
COc1ccc(S(=O)(=O)NCCS(=O)(=O)N2CCN(c3ccccc3)CC2)cc1 | 1.4% | -6 | -18 | -6 | -0.7 | -1.8
CC(=O)Nc1ccc(S(=O)(=O)N2CCN=C2SCc2ccccc2C)cc1 | 3.6% | 9 | 8 | -11 | 1.2 | -0.6
COCCCNC(=O)Cn1c(=O)n(CCCC(=O)NCc2ccc(C)cc2)c(=O)c2ccccc21 | 1.6% | . | -10 | . | -0.3 | .

Record cards, as listed above. Order of screens: PINK1 expr mod | Six1-Eya2 blk | TRPML1 blocker | D2 potentiator | TRPML1 ag | D2 ag
Results for O=C(COc1ccc2ccccc2c1)N/N=C/c1ccccn1 → -1.1% | -1 | 4 | 4 | 1.6 | -5.8
Results for Cc1cc(C)cc(SCc2noc(C(=O)NC(C)C)c2C(=O)O)c1 → 0.8% | 2 | 11 | 10 | -0.2 | 0.6
Results for COc1ccc(S(=O)(=O)NCCS(=O)(=O)N2CCN(c3ccccc3)CC2)cc1 → 1.4% | -6 | -18 | -6 | -0.7 | -1.8

Going on with the list:
SMILES | PINK1 expr mod | Six1-Eya2 blk | TRPML1 blocker | D2 potentiator | TRPML1 ag | D2 ag
COc1cc(OC)cc(C(=O)N/N=C/c2ccc(OC)c(COc3ccc(F)cc3)c2)c1 | 0.5% | -4 | 3 | -3 | 0.6 | 4.3
Fc1ccc(OCCCCN2CCOCC2)cc1 | 0.7% | 5 | -1 | -30 | -0.2 | -2.1
O=C(COC(=O)c1ccccc1Nc1ccccc1)c1ccccc1 | . | 52 | -10 | -9 | 0.9 | -0.2
O=C(O)c1cccc(Nc2ncnc3c2cnn3-c2ccccc2)c1 | -0.6% | ? | 27 | 1 | -0.8 | 1.1
NS(=O)(=O)c1ccc(NC(=O)c2cccc(Cl)c2)cc1 | -0.5% | -3 | 1 | -3 | 0.0 | -1.1
Cc1onc(-c2ccccc2)c1CNC(=O)Nc1ccc(F)cc1F | 11% | 0 | 9 | -5 | 1.9 | -3.1
CCOc1ccc(-n2c(SCC(=O)NCc3ccco3)nc3c(c2=O)SCC3)cc1 | -1.3% | -3 | 10 | 5 | 0.9 | -0.8
COc1cc(OC)cc(C(=O)NCC(=O)N2CCCCCCC2)c1 | 1.0% | -3 | -22 | 2 | 1.8 | 7.1
Cc1nc(SCC(=O)c2cccc([N+](=O)[O-])c2)n[nH]1 | -0.8% | 3 | 33 | -21 | 2.4 | -5.9
CCN1CCN(C(=O)c2cccc(OC3CCN(S(C)(=O)=O)CC3)c2)[C@@H](C)C1=O | 0.6% | 5 | 3 | 0 | 0.1 | -1.4
Cc1cc(Br)ccc1SCC(=O)OCC(=O)Nc1ccc2[nH]c(=O)[nH]c2c1 | 1.4% | 3 | 0 | -12 | -0.3 | -4.0
O=c1c2ccccc2nc(SCc2ccncc2)n1CC1CCCO1 (configuration not stated) | -0.1% | 3 | -7 | -7 | 1.2 | 0.3
O=C(c1ccc2[nH]c(=O)c(=O)[nH]c2c1)N1CCc2ccccc2C1 | 0.7% | 3 | 11 | -9 | 0.4 | 0.0

Compound activity: PubChem, National Center for Advancing Translational Sciences (NCATS)
